High-throughput results as filed in PubChem.
TRPML1 ag: activates the human TRPML1 channel; Q9GZU1; actives 0.12% (n = 410,000); activation, % (concentration not given with the values); TRPML1-expressing cells, Ca2+ dye fluorescence, FDSS; host cell line not named in the record; reference of the full effect not given here; in the data active = activation above about 50%; inconclusive = about 30% to 50%; inactive = below about 30%; note: 0% is about no effect; the text of the record puts the active cut at 80%
Target sequence (Q9GZU1 whole entry, looked up): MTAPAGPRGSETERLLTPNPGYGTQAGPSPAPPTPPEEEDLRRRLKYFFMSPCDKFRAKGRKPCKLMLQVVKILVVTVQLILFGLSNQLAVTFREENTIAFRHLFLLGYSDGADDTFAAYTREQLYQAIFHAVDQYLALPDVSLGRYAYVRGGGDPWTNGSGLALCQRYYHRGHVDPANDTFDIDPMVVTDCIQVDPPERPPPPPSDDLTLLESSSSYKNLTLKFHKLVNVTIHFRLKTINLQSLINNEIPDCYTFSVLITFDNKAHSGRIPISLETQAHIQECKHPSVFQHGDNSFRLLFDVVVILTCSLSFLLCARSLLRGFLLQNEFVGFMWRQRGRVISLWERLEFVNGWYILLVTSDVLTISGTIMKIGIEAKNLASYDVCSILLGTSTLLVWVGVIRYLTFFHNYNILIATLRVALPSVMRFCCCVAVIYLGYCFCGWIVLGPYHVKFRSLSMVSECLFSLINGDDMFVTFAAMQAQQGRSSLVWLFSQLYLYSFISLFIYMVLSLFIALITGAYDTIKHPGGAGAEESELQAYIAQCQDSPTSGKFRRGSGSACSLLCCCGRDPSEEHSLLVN
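Tetracycline-induced TRPML1-DL cells are seeded and incubated overnight before loading with a no-wash Ca2+ dye and quencher. Agonist activity is taken from the 110 s fluorescence read following compound pin-transfer on an FDSS, before EC80 54-4 challenge.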
Six1-Eya2 blk: inhibitors of human Six1/Eya2 interaction | Q15475+O00167 | AlphaScreen GST-Six1/His-Eya2 binding, biochemical; hits give low values; control for the full effect not named in the record | activity change, % (test concentration not listed) | actives 0.56% (n = 360,000) | AID 651725; in the data active = activity change below about -65%; inconclusive = about -30% to -65%; inactive = above about -30%; note: % is set by controls: 0 for no effect and ±100 for the full control effect; compound concentration not given in the record
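AlphaScreen luminescence read after one hour at 37 °C in darkness. Pin-transferred compounds met GST-Six1 and His-Eya2 protein (5X stock 250 nM/500 nM) plus glutathione donor and Ni-chelate acceptor beads (5X, 50 ug/mL).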
D2 agonist: agonists of human D2 dopamine receptor (beta-arrestin); P14416; DiscoveRx PathHunter D2 beta-arrestin, luminescence, 90 min; 100% = 57 uM dopamine signal; activation, % (test concentration not listed); actives 0.084% (n = 360,000); AID 624465; in the data active = activation above about 40%; inconclusive = about 15% to 40%; inactive = below about 15%; note: compound concentration not given in the record; the text of the record calls up to 30% inactive
Target sequence (P14416 whole entry, looked up): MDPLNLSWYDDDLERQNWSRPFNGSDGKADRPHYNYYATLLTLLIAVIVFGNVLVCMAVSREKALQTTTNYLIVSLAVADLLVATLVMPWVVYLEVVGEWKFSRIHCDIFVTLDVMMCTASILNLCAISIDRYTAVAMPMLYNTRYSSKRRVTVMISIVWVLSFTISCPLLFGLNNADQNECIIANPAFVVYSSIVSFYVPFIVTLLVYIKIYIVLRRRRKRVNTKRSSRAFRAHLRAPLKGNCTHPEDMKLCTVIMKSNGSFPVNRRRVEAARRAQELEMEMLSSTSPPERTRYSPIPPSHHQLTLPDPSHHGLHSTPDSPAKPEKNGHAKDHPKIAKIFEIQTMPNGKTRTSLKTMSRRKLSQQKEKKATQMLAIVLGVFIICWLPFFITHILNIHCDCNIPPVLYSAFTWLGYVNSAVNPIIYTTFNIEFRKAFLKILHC
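DiscoveRx PathHunter D2 beta-arrestin cells (2,100/well) attached overnight, then compound-stimulated 90 min at 37 C in HBSS/10 mM HEPES/0.1% Tween-20 buffer; beta-galactosidase complementation read by luminescence after 1 h at ambient temperature. Dopamine 57 uM final (EC100) as control.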
TRPML1 blocker: human mucolipin-1 channel inhibition; Q9GZU1; TRPML1-inducible cells, Ca2+ dye fluorescence, FDSS; hits give low values; inhibition of EC80 agonist-evoked calcium signal; activity change, negative = inhibition, % (no concentration beside the values); actives 0.02% (n = 390,000); in the data active means activity change below about -50%; inconclusive means about -30% to -50%; inactive means above about -30%;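 note: stimulus is agonist 54-4 at its EC80 concentration; % is set by controls: 0 for no effect and ±100 for the full control effect; compound concentration not given in the record; the text of the record puts the active cut at -80%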
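TRPML1-DL cells, Tet-induced overnight (~16 h, 37 °C) at 1,500 cells/well, were loaded with Ca8 no-wash dye plus quencher for 45-90 min at room temperature. Compounds were pinned during FDSS kinetic reading; agonist 54-4 at EC80 (4 uM final) then added.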
PINK1 modulator: modulators of PINK1 expression | PINK1 immunofluorescence, high-content cytometry, 24 h | Potency, µM (series often up to 76.6 µM), for the others: at the top dose activation (PINK1 increase), hits mostly activators | actives 0.2% (n = 410,000); active = well fitted activation curve with a large enough effect; inconclusive = small, poorly fitted or top-dose-only effect; inactive = flat fitted curve, though single readings scatter; cell line not stated here;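 note: potency is the fitted concentration of half-maximal effect; % of control where 0% means no effect; nearly all actives have a fitted effect of over 65% in size; a mitochondrial uncoupler was the plate control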
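Stable cell line, 250 cells/well, 12 h attachment; compounds pinned at 5 concentrations, 24 h; CCCP control. Fixed with nuclear dye, primary antibodies 12 h at 10 degrees C, secondary plus cell stain; laser-scanning cytometer read.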
CtBP-E1A inh: inhibitors of CtBP/E1A interaction. actives 0.49% (n = 340,000). AlphaScreen GST-E1A/His-CtBP binding, 1536-well; hits give low values; control for the full effect not named in the record. activity change, % (concentration not given with the values); in the data active means activity change below about -65%; inconclusive means about -30% to -65%; inactive means above about -30%; note: % is set by controls: 0 for no effect and ±100 for the full control effect
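Protein mix (5X: 125 nM each GST-E1A, His-CtBP) was incubated with pinned compound 2 h at 37 deg C in dark, in 50 mM Tris pH 8.0 buffer with 300 mM NaCl. Glutathione donor and nickel acceptor beads followed; AlphaScreen signal read after 1 h.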
The depositor's hits bear a star; ? = inconclusive; nt = no result given; & = joins results of further samples; [ ] = remark or other dose.

Below each SMILES – TRPML1 ag	Six1-Eya2 blk	D2 agonist	TRPML1 blocker	PINK1 modulator	CtBP-E1A inh
> CCN(CC)C(=O)CN1CCN(c2ccccc2F)CC1
  0.0	0	0.4	2	1.9%[38.3 µM]	11
> Cc1cc(Cl)ccc1NC(=O)c1cc(S(=O)(=O)N2CCOCC2)cn1C
  0.5	nt	nt	-8	0.9%	nt
> CCc1nnc(NC(=O)C2COc3ccccc3O2)s1 (stereo not drawn)
  0.1	0	0.8	0	-0.4%	3
> COc1cccc(NC(=S)N(CCc2c(C)[nH]c3ccccc23)Cc2ccco2)c1
  -0.9	-13	-0.3	-3	7.6%	-12
> COC(=O)c1ccc(-c2ccc(CNCC(O)c3ccccc3)o2)cc1 (stereo not drawn)
  -0.5	2	-1.5	0	-0.5%[38.3 µM]	11
> O=C(Cn1c(=O)nc(-c2ccccc2)c2ccccc21)Nc1ccc(Cl)c(C(F)(F)F)c1
  0.9	nt	nt	0	2.5%	nt
> Cc1nc(SCC(=O)Nc2ccc(C)c(Cl)c2)cc(-c2ccccc2)n1
  2.4	nt	nt	19	1.3%	nt
> Cc1ccc(NC(=O)C(c2ccccc2)N(C)C)cc1Cl (stereo not drawn)
  0.0	3	-5.8	1	16%	0
> COC(=O)c1cc(=O)n(CCc2ccccc2F)c(=Nc2ccc(F)c(Cl)c2)s1
  1.8	-1	-3.7	-1	9.6%	-11
> COc1ccc2[nH]c(=O)c(CN(CCc3ccccc3)Cc3nnnn3CC3CCCO3)cc2c1 (stereo not drawn)
  -0.5	-11	-0.5	-12	0.3%[38.3 µM]	-18
> COc1cc(/C=N/NC(=O)c2cc(-c3ccco3)nc3ccccc23)cc(OC)c1O
  1.2	-17	-7.7	9	1.1%	-22
> COCC(C)NC(=O)c1cccc(Cl)c1 (stereo not drawn)
  -0.7	8	1.7	-2	0.3%	8
> CC(C)c1ccc(N(CC(=O)NCC2CCCO2)C(=O)Cn2nnc(-c3cccs3)n2)cc1 (stereo not drawn)
  2.2	-5	6.0	-8	1.0%	11
> O=S(=O)(c1ccccc1)N1CCN(Cc2c(O)ccc3ccccc23)CC1
  3.9	-9	6.6	5	0.7%	-6
> O=C(CSc1nc2ncc(Cl)cc2[nH]1)N1CCC(Cc2ccccc2)CC1
  1.9	6	1.9	19	5.1%	-12
> COc1ccc(-c2ccnc(SCC(=O)N3CCOCC3)n2)cc1
  0.0	2	-0.5	-9	2.4%[38.3 µM]	4
> COc1ccc(NC(=O)c2cc(S(=O)(=O)N3CCOCC3)cs2)cc1
  0.0	2	-0.4	2	-1.9%	2
> CC1CCCN(C(=O)CNS(=O)(=O)c2cccs2)C1 (stereo not drawn)
  -0.2	5	3.2	0	1.9%	-3
> O=C(c1ccc(CNS(=O)(=O)c2ccc(F)cc2)cc1)N1CCCCCC1
  -0.9	0	-1.5	6	-0.7%	1
> COc1cccc(/C=N/Nc2nc(N3CCCC3)nc(N3CCCC3)n2)c1O
  0.7	-6	-0.7	13	4.8%[38.3 µM]	8
> C=C1CCN([C@@H](CC(C)C)C(=O)O)S(=O)(=O)c2ccccc21
  -0.2	12	1.0	8	2.8%	nt
> CN(Cc1ccccc1)C(=O)c1ccc2c(c1)OCCO2
  -0.6	-2	-2.9	8	-0.5%	6
> COc1ccc(C)cc1S(=O)(=O)Nc1ccc(F)c(Cl)c1
  0.0	1	-2.6	7	-0.8%	8
> O=C(c1ccco1)N1CCCSC1=Nc1ccccc1
  -0.2	-11	-0.5	13	5.9%[38.3 µM]	-8
> Cc1ccc(CN2C(=O)c3ccccc3NC2c2cc(Br)ccc2O)cc1 (stereo not drawn)
  -0.2	-10	-1.2	8	?	-27
> C=CCOc1ccn(C)c(=O)n1
  -0.4	-1	-4.7	-2	-0.6%	nt
> Cc1cc(NS(=O)(=O)c2ccc(NC(=O)/C=C/c3ccccc3)cc2)no1
  1.7	-9	-4.2	-3	-0.9%	-13
> CCCOc1ccc(S(=O)(=O)N2CCCC2)cc1[N+](=O)[O-]
  1.8	-3	-1.7	-16	-0.9%	0
> Cc1cccn2c(=O)c3cc(C#N)c(=O)n(-c4nnc(SCc5ccc(Cl)cc5)s4)c3nc12
  2.4	nt	nt	32	0.4%	nt
> Cc1nnc(N2CCCC(C(=O)NCc3ccc(OC(C)C)cc3)C2)c2nn(-c3ccccc3)c(C)c12 (stereo not drawn)
  2.9	0	8.8	28	2.2%	-7
> Cc1cc(C)c2nc(N3C(=O)C(O)=C(C(=O)c4ccco4)C3c3ccco3)sc2c1 (stereo not drawn)
  2.9	?	1.7	65	2.6%	-23
> OC[C@H]1O[C@@H](c2nc(-c3ccc4[nH]ccc4c3)no2)[C@H](O)[C@@H](O)[C@H]1O
  -0.4	0	2.0	nt	0.6%	7
> Oc1ccccc1C=Nc1cccc2ccccc12
  nt	0	1.9	nt	1.9%	nt
> C=CCc1c(OC)ccc2c1c(S(=O)(=O)c1ccc(C)cc1)cn2COC
  3.1	9	-8.0	-10	5.1%	15
> Cn1c(-c2ccc(F)cc2)cnc1NCc1cccc([N+](=O)[O-])c1
  0.6	-7	-12	19	2.0%	-8
> CCOc1ccc2[nH]c(=O)c(CN(Cc3ccccc3)C(=O)N3CCCC3)cc2c1
  0.3	-4	-1.0	11	-3.4%	-3
> Cc1c(CCO)c(=O)[nH]n1C(=O)c1c(F)cccc1F
  -0.6	2	-3.8	-16	?	2
> CCOc1cccc2sc(N(CCN(C)C)C(=O)c3cc4ccccc4cc3OC)nc12
  -0.8	?	-0.7	3	-1.3%	?
> CC12CCC(CC1O)C2C(=O)O (stereo not drawn)
  -0.1	1	-5.4	14	-1.0%	0
> C/C(=N\NC(=O)Cc1c(C)[nH][nH]c1=O)c1cccc(Br)c1
  nt	-1	-8.4	nt	3.7%	-10
> COc1ccc(-c2cc(C(=O)Nc3sc4c(c3C#N)CCCC4)c3ccccc3n2)cc1OC
  -0.6	-5	-4.3	-2	2.0%	-15
> N#Cc1cc2c(nc1SCC(=O)O)CCCC2
  -0.4	0	-3.2	-11	0.2%	8
> CCOC(=O)C1=CNS(=O)(=O)NC1c1ccccc1 (stereo not drawn)
  -0.8	12	1.3	-2	-0.7%	9
> O=C(NNC(=O)c1ccc[nH]1)Nc1cccc(C(F)(F)F)c1
  1.2	18	-2.9	16	-0.7%	-6
> Cc1ccc(C(O)CN2C3=NCCN3c3ccccc32)cc1 (stereo not drawn)
  -0.9	-1	-1.1	14	-0.9%	0
> Cc1ccc(NC(=O)COc2ccccc2)cc1S(=O)(=O)N1CCCCCC1
  0.9	-4	0.9	-16	3.3%	-16
> COc1ccc(S(=O)(=O)NC(=O)C2(C)CCN2C(=O)c2ccccc2CCc2ccccc2)cc1 (stereo not drawn)
  -0.2	-3	4.8	nt	-1.2%	-4
> Cc1ccc(-c2nnn(CC(=O)N(CC(=O)NC3CCCCC3)c3cnc4ccccc4c3)n2)o1
  0.5	-3	2.7	-3	3.9%[38.3 µM]	-6
> CCNC(=S)N1CCC(C(N)=O)CC1
  nt	1	-2.6	nt	1.0%	7
> Fc1ccc(COc2ccccc2CNCc2ccncc2)cc1
  0.0	-1	-3.6	7	-0.2%	4
> CS(=O)(=O)Cc1ccc(C(=O)NC2CCSc3ccccc32)cc1 (stereo not drawn)
  -0.5	-2	-0.2	-12	1.4%	-21
> O=C(Nn1cnnc1)C1Cc2ccccc2CN1S(=O)(=O)c1ccc(F)cc1 (stereo not drawn)
  0.2	-1	-4.1	14	0.7%	-2
> O=c1[nH]c(SCc2ccc(Cl)cc2)nc2ccsc12
  1.6	-11	-4.2	11	1.9%	?
> O=[N+]([O-])c1ccc(Oc2cccc(F)c2)c2ccncc12
  1.0	?	1.2	8	2.1%	?
> O=C(NCCO)c1ccc2c(c1)S(=O)(=O)c1ccccc1C2=O
  -0.3	-6	1.7	-7	-0.7%	2
> CCc1nc(C)c(C(=O)N2CCCC(C(=O)Nc3cccc(-c4cccc(C)c4)c3)C2)o1 (stereo not drawn)
  2.9	-14	-2.3	-9	-1.1%	-24
> COC(=O)C(Cc1ccc(OC(=O)c2ccc(C(F)(F)F)cc2)cc1)N1Cc2ccccc2C1=O (stereo not drawn)
  0.1	-3	-1.3	10	3.8%	4
> CCCCCC(=O)N1C[C@H](O)[C@@H](n2cc(COC(=O)c3ccccc3)nn2)C[C@@H]1c1ccc(C)cc1
  2.8	-1	1.9	-3	-2.0%	0
> O=C(NCc1ccccc1)c1onc(CSc2ccccc2)c1C(=O)NCC1CC1
  2.2	2	-5.7&0.2	52	2.4%	13
> Nc1c(Cl)cc(Cl)cc1C(=O)OCC(=O)N1CCCC1
  -0.5	4	-1.6	6	9.5%[38.3 µM]	4

Next records:
Below each SMILES – TRPML1 ag	Six1-Eya2 blk	D2 agonist	TRPML1 blocker	PINK1 modulator	CtBP-E1A inh
> Cc1ccc(CN2C(=O)CSc3ccc(C(=O)NCCN4CCOCC4)cc32)cc1
  0.9	9	1.6	-5	-4.2%	1
> COc1ccccc1C1CC(c2ccccc2)=NN1C(=O)c1ccccc1 (stereo not drawn)
  3.9	-20	-6.5	25	-0.8%	4
> COc1ccc(NC(=O)c2ccc3nc(C(C)C)oc3c2)cc1OC
  1.1	nt	nt	-18	-0.6%	nt
> c1ccc(-c2nnc(Cn3c4ccccc4c4nc5ccccc5nc43)o2)cc1
  -0.5	2	-0.3	51	7.4%	9
> CC1=C/C(=N\N=C2\NC(=O)C(CC(=O)Nc3ccccc3)S2)CC(C)(C)C1 (stereo not drawn)
  0.3	0	-1.1	23	-0.9%	nt
> CCN(CC(=O)Nc1cc(Cl)ccc1C)C(=O)CCOc1ccc(C)cc1
  0.9	8	-0.5	-3	-0.3%	1

Two of the compounds above, with each value named:
> c1ccc(-c2nnc(Cn3c4ccccc4c4nc5ccccc5nc43)o2)cc1
  TRPML1 ag: -0.5 | Six1-Eya2 blk: 2 | D2 agonist: -0.3 | TRPML1 blocker: 51 | PINK1 modulator: 7.4% | CtBP-E1A inh: 9

> CC1=C/C(=N\N=C2\NC(=O)C(CC(=O)Nc3ccccc3)S2)CC(C)(C)C1 (stereo not drawn)
  TRPML1 ag: 0.3 | Six1-Eya2 blk: 0 | D2 agonist: -1.1 | TRPML1 blocker: 23 | PINK1 modulator: -0.9% | CtBP-E1A inh: nt
